BJeLR viability: kills HRASV12-expressing BJeLR cells | BJeLR (HRASV12) viability, CellTiter-Glo ATP luminescence, 48 h; reference of the scale not given here | inhibition, % (test concentration not listed) | actives 0.17% (n = 300,000) | AID 1554;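 active means replicate mean above 50%; inconclusive means above 50% but judged a plate artefact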;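 further: 50 nL library stock added to about 25 µL; numbers are from one replicate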
RN4220 kill: S. aureus RN4220 growth inhibition; AID 1259311; inhibition, % (test concentration not listed); actives 0.33% (n = 330,000); OD600, 16 h;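 active means z-score of -3 or lower and OD600 up to 0.18 on both plates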;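 further: plate controls were untreated cells for no effect and reference antibiotic for full effect; stock transfer was 100 nL into about 80 µL; one replicate is shown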
Bead autofluor: counter-screen for toxin protease inhibitors: compound fluorescence; actives 3.1% (n = 360,000); compound autofluorescence counterscreen, microsphere flow cytometry; hits give high values; fluorescence intensity (no concentration beside the values);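 active means at least 3 SD above the mean of all compounds, about 16000 in these data; inconclusive means too few beads counted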;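 further: 100 nL of 1 mM stock went into each well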
PrP UTR inh: inhibition of PrP 5' UTR reporter expression | cell-based PrP 5' UTR mRNA reporter, plate reader | inhibition, % (no concentration beside the values) | actives 0.35% (n = 340,000) | AID 488862;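 active means every replicate at 50% or more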;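 further: 0 = median of the neutral control wells; tested in H4 reporter cells; numbers are from one replicate; inactives centre near -14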
ugtP null kill: compounds lethal to S. aureus RN4220 ugtP deletion mutant | AID 1259309 | growth inhibition, % (no concentration beside the values) | actives 0.54% (n = 330,000) | OD600 growth, 16 h; some inactives read as strong as hits;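 active means z-score under -3 and OD600 up to 0.15 on both plates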;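 further: plate controls were untreated wells for no effect and antibiotic for full effect; wells of about 80 µL received 100 nL stock; the first replicate is given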
Mtb hypoxia inh: Mtb hypoxia fluorescent reporter inhibition | M. tuberculosis hypoxia-regulated fluorescent reporter, fluorescence | fluorescence inhibition, % (no concentration beside the values) | actives 0.1% (n = 300,000) | AID 1159583;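 active means 35 to 45% if threefold the growth effect, above 45% if 1.5-fold the growth effect; inactive means the rest, general growth blockers included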;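 further: wells of about 50 µL received 100 nL stock; 0% = vehicle wells and 100% = reference inhibitor wells; whole bacteria with a GFP reporter of the hypoxia response; strong numbers were not always called active; many hits fall short of the cut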
Mtb hypoxia inh growth: second read-out of Mtb hypoxia inh, no call of its own (marks repeat the call); growth inhibition, %; measured here: M. tuberculosis growth (absorbance);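 0% = vehicle and 100% = reference antibiotic; read after six days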
* marks the source's active call; other numbers are inactive results; ? = inconclusive; . = not tested or not shown. An unsorted share of the library, and some 4% of all compounds hit somewhere here.

SMILES	BJeLR viability	RN4220 kill	Bead autofluor	PrP UTR inh	ugtP null kill	Mtb hypoxia inh	Mtb hypoxia inh growth
CCn1cc(C(=O)NCc2cccs2)c(=O)c2cc(S(=O)(=O)N3CCOCC3)ccc21	-3	3.5	.	.	7	1	4
CCCOc1ccc(C(=O)Nc2ccc3c(c2)OCCO3)cc1	10	-0.3	3129	-47	-5	-9	5
CCOc1ccc(Nc2nc(Cc3nnc(SCC(=O)c4ccc(C)c(C)c4)o3)cs2)cc1	-8	1.0	4548	-17	5	9	5
COc1cc(C(=O)Nc2ccc(Br)cc2C(=O)c2ccccc2)cc(OC)c1OC	-8	-6.8	.	-12	-7	5	5
CCCNC(=O)C1CC(=O)N(c2ccc(OCC(=O)Nc3cccc(C)c3C)cc2)C1 (centres undefined)	-3	1.9	4769	-3	4	.	.
Cc1cc(C)n(CCc2nc(-c3ccc(C)o3)cs2)n1	1	4.6	2758	-14	-15	.	.
CC1CN(C(=O)CCC(=O)N2CCCCC2)c2cc(Cl)ccc2O1 (centres undefined)	-4	4.9	5072	-5	0	18	7
CCOC(=O)Cn1c(C)cc(=O)c2cccc(C)c21	-11	-10	2434	-6	3	.	.
O=C1[C@@H]2[C@H](C(=O)N1Cc1ccco1)[C@H]1C=C[C@@H]2C1	6	1.2	9862	.	3	10	2
CCOc1cc(S(=O)(=O)n2cc(-c3ccc(F)cc3)c(N)n2)cc(OCC)c1OCC	10	-5.6	2809	-11	-16	.	.
CCC1=NNc2cccc3c(OC)ccc1c23	3	-5.2	.	.	-3	60*	21*
O=C(NN=C/C=C\c1ccccc1[N+](=O)[O-])c1cccs1	.	1.9	.	.	4	-3	0
CCOC(=O)c1sc(NC(=O)CSc2nnc(C(C)C)n2CC)nc1C	17	6.6	3183	3	-3	-4	4
Cc1ccc(-c2c(=O)n(O)c3ccccc3[n+]2[O-])cc1	4	5.5	2993	-27	8	3	-9
CCN1CCCC1CNC(=O)c1cc(COc2ccc(C)c(C)c2)on1 (centres undefined)	3	2.4	5570	-27	6	4	0
COc1ccc2[nH]c3c(c2c1)CCN1C(=O)C(CC(=O)NCc2ccco2)C[C@H](C(=O)N2CCOCC2)[C@@]31C (some centres undefined)	.	4.6	2960	-13	7	-12	4
COc1c(OC(C)=O)ccc(/C=C/c2ccc3ccccc3n2)c1[N+](=O)[O-]	0	2.9	23285*	-208	3	-11	15
CN(C(=O)c1ccc(NC(=O)Cc2cccc(NC(=O)C3CCN(C(=O)C4CC4)CC3)c2)cc1)C1CCCC1	.	2.0	3980	-13	0	1	1
CCOC(=O)C1=CN(CC)S(=O)(=O)NC1CCc1ccccc1 (centres undefined)	.	6.0	2991	-18	9	10	-3
Cc1ccc(S(=O)(=O)N(C)CC(=O)Nc2ccccc2N2CCCC2)cc1	.	-2.1	3844	1	-5	-11	5

Continued, overlapping the part above by 2 compounds.
SMILES	BJeLR viability	RN4220 kill	Bead autofluor	PrP UTR inh	ugtP null kill	Mtb hypoxia inh	Mtb hypoxia inh growth
CCOC(=O)C1=CN(CC)S(=O)(=O)NC1CCc1ccccc1 (centres undefined)	.	6.0	2991	-18	9	10	-3
Cc1ccc(S(=O)(=O)N(C)CC(=O)Nc2ccccc2N2CCCC2)cc1	.	-2.1	3844	1	-5	-11	5
O=C(CN1C(=O)c2ccccc2C1=O)N1CCCCC1	-5	-2.8	4373	-4	1	3	7
Cc1ccc(NC(=O)CSc2nnc(C)c(=O)n2N)c(C)c1	-2	2.9	2334	-26	3	-1	4
CC(=NNC(=O)C1CC1)c1ccc(Cl)cc1	.	1.4	.	.	-1	-5	-8
Cn1c2c(c3ccccc31)CCSC2=O	6	1.9	22095*	-31	7	3	-1
O=C(NCc1ccccc1)C1=C[C@@H](c2coc3ccccc3c2=O)C[C@@H](OCc2ccc(CO)cc2)O1	5	.	3646	5	.	.	.
COC(=O)c1c(C)oc2cc(Br)c(OCC(=O)C(C)(C)C)cc12	2	7.9	5441	-32	-8	14	15
COc1ccc(C(=O)ON=C(C(N)=O)P(=O)(OC(C)C)OC(C)C)cc1	.	2.6	.	.	4	4	13
COc1cc(C=NNC(=O)c2ccncc2)ccc1OCC(=O)Nc1ccc(C)c(C)c1	.	1.0	.	.	2	17	4
COCCn1c(C)cc(C(=O)CSc2nnc(C3CC3)n2C2CC2)c1C	.	0.7	7775	-17	6	11	3
CC(C)(C)c1ccc2c(c1)OC(C(=O)N/N=C\c1ccncc1)CO2 (centres undefined)	6	.	5573	-31	.	.	.
Cc1c(/C=N/Nc2ccc(F)cc2)c(O)n(C)c(=O)c1C#N	-4	1.5	1988	4	1	12	8
CC1CCCC(C)N1C(=O)COC(=O)c1cc(F)c(F)cc1Cl (centres undefined)	.	7.8	3547	-11	4	9	13
O=C1/C(=N\O)Cc2ccccc21	1	.	7829	-26	.	.	.
CCOc1ccc(CCNC(=O)Cc2nn[nH]n2)cc1OCC	1	3.2	3545	-14	2	.	.
Cc1ccc(-c2nnc(NCc3ccccc3)c3ccccc23)cc1	1	-7.2	9296	-12	12	7	1
O=C(CN1CCN(Cc2ccccc2)CC1)NN=Cc1cccs1	.	3.0	.	.	12	-4	-1
Cn1c(=O)cc(N2CCN(C(=O)c3ccco3)CC2)[nH]c1=O	-2	-11	5476	-77	-5	7	6
O=C(Oc1ccc(-c2nnco2)cc1)c1ccc(F)c(S(=O)(=O)N2CCOCC2)c1	1	.	6423	-9	.	.	.
O=C(Nc1nnc(-c2cccs2)s1)c1cccc(F)c1	.	-13	4343	74*	11	2	2
Cc1ccc2nc(-c3cccc(Br)c3)cc(C(=O)NCC3CCCO3)c2c1 (centres undefined)	3	0.3	4400	4	6	-8	-3
O=C(CN1CCN(C(=O)c2cccc(-n3cnnn3)c2)CC1)Nc1ccccc1Cl	.	5.5	4060	-13	6	4	-1
Nc1ccc(-c2nc3ccc([N+](=O)[O-])cc3[nH]2)cc1	-18	3.4	1971	-76	5	2	7
CC(C)Cc1ccc(C(C)C(=O)Nc2cccnc2)cc1 (centres undefined)	7	2.4	3961	-20	-2	4	22
CCOC(=O)c1c(CC(C)C)csc1NC(=O)C(C)C	-3	8.0	4367	4	16	.	.
O=C1N[C@H]2CC=C[C@H]2N(Cc2cccs2)c2ccccc21	.	5.1	3315	-24	9	1	5
CCOc1ccc2c(c1)nc(NCCCO)n2Cc1ccccc1	21	1.7	3965	-17	2	0	11
Cc1ccc(S(=O)(=O)N2CCN(c3ccnc4cc(Cl)ccc34)CC2)cc1	-2	-0.8	4416	-8	0	-2	8
Cc1noc(C)c1NC(=O)N(C)CC1Oc2ccc(NC(=O)Nc3ccc4c(c3)OCO4)cc2C(=O)N(C(C)CO)CC1C (centres undefined)	.	0.9	.	.	0	7	15
CCN(CC)S(=O)(=O)c1ccc(Cl)c(C(=O)Nc2cccnc2)c1	-9	-2.6	.	-25	10	13	6
COc1nc(NCCO)nc(Nc2ccccc2F)n1	-3	5.6	4478	-52	2	-2	7
COc1cccc(N2CCN(CC(=O)NCc3cccs3)CC2)c1	3	2.0	2724	-6	1	3	0
CCc1nn(CC(=O)N2CCN(CC)CC2)c(=O)c2cccn12	-1	2.4	6171	3	0	2	3
COc1ccc(OC)c(C(=O)CCCC(=O)c2cc(OC)ccc2OC)c1	5	3.5	3735	-11	16	3	-3
CN(C)CCCNC(=S)Nc1ccc(Oc2ccccc2)cc1	7	2.7	4565	-37	3	7	5
CCN(c1ccccc1)S(=O)(=O)c1ccc(OC)c(NC(=O)c2ccccc2OC)c1	.	4.4	6168	-4	-7	-6	4
CN1CCN(c2ccc(NC(=O)c3ccc4c(c3)[nH]c(=O)n4Cc3ccc(F)cc3)cc2)CC1	8	.	2478	-27	.	.	.
COc1ccc(NC(=O)c2sc3nc(N4CCOCC4)c4c(c3c2N)CC(C)(C)OC4)cc1	5	4.9	5212	-6	1	7	0
O=C(CN1c2cccc3cccc(c23)S1(=O)=O)Nc1ccccc1	3	6.0	4400	-6	6	-1	5
Cc1nc(N2CCN(C(=O)c3ccco3)CC2)[nH]c(=O)c1C	-6	4.7	3296	9	5	1	3
Cc1ccc(-n2c(-c3ccc(Cl)cc3)n[nH]c2=S)c(C)c1	-3	1.5	3982	-24	17	10	5
N#Cc1ncc(C(F)(F)F)cc1Oc1cccnc1	-6	5.2	?	-12	5	10	-2
NC(=O)CC(NC(=O)Cc1ccc(Cl)cc1)c1ccc(N2CCN(c3ccccn3)CC2)c([N+](=O)[O-])c1 (centres undefined)	0	5.8	4039	10	8	7	11
CC(C)OP(=O)(OC(C)C)C1(O)C(=O)Nc2ccccc21 (centres undefined)	-1	1.1	3121	-10	0	5	7
Cc1c(N/C=C/C(=O)c2ccc(Cl)cc2)c(=O)n(-c2ccccc2)n1C	-12	-1.0	10481	-31	10	16	7
CCCn1c(SC2C(=O)CC(C)(C)CC2=O)nc2c1c(=O)n(C)c(=O)n2C	10	-0.2	8196	-43	-1	-8	6
CS(=O)(=O)N(Cc1ccccc1)c1ccc(C(=O)NCCSCc2ccco2)cc1	-2	5.3	4352	-22	3	10	3
CCOc1ccc(OCC)c(NC(=O)CCCN2C(=O)c3cccnc3C2=O)c1	29	-1.9	2772	-18	10	-5	-6
Cc1ccccc1NC(=O)Cn1c(CCC(=O)O)ccc1-c1cccs1	11	.	2547	-17	.	.	.
Cc1cc(C)n(-c2ccc3nnc(C)n3n2)n1	-2	4.0	4289	-17	1	-5	5
CCOC(=O)N1CCN(C(c2cccc(OC)c2)c2sc3nc(C)nn3c2O)CC1 (centres undefined)	5	-1.5	4683	-13	7	.	.
CN(C)C(C)(C)C#CC(O)(c1ccccc1)c1ccccc1	5	.	4145	-20	.	.	.
O=C(Cc1ccc(Cl)cc1)Nc1cccnc1	-7	-1.0	3998	-10	-1	-5	4
CCN1CCN(Cc2ccc(OCc3ccccc3)c(OC)c2)CC1	14	4.1	10760	-22	8	9	13
Cc1cc([N+](=O)[O-])nn1CCCC(=O)Nc1cc(Cl)ccc1Cl	11	7.0	4382	-29	9	-4	4
Cc1nn(C)c(C(=O)Nc2cccc(CN3CCOCC3)c2)c1Br	-11	-0.2	2016	-10	8	6	-1
Cc1noc(C)c1C(=O)OCC(=O)NCc1ccc(Cl)cc1	.	2.5	8318	-11	-5	-4	1
COc1ccc(/C=C/c2nc(C)c(-c3ccccc3)c(=O)[nH]2)cc1OC	3	.	2557	-15	.	.	.
CCCc1cc(-c2n[nH]c(=S)n2-c2cccc(C)c2)cs1	2	-0.3	4216	-23	26	3	3
CCOc1ccc(CN(Cc2ccco2)S(=O)(=O)c2ccc(-n3cnnn3)c(OC)c2)cc1	-1	3.0	11567	-8	1	-3	11
COC(=O)C(OC(=O)c1ccc(OC)cc1)C(=O)OC	8	2.7	?	-13	2	6	-2

4 records picked at random from the list so far:
SMILES	BJeLR viability	RN4220 kill	Bead autofluor	PrP UTR inh	ugtP null kill	Mtb hypoxia inh	Mtb hypoxia inh growth
COc1ccc(/C=C/c2nc(C)c(-c3ccccc3)c(=O)[nH]2)cc1OC	3	.	2557	-15	.	.	.
N#Cc1ncc(C(F)(F)F)cc1Oc1cccnc1	-6	5.2	?	-12	5	10	-2
Cc1cc([N+](=O)[O-])nn1CCCC(=O)Nc1cc(Cl)ccc1Cl	11	7.0	4382	-29	9	-4	4
Cc1noc(C)c1C(=O)OCC(=O)NCc1ccc(Cl)cc1	.	2.5	8318	-11	-5	-4	1

Next structures
SMILES	BJeLR viability	RN4220 kill	Bead autofluor	PrP UTR inh	ugtP null kill	Mtb hypoxia inh	Mtb hypoxia inh growth
Nc1cccc(NC(=O)c2ccco2)c1	-9	2.5	3627	-13	-3	8	-1
COc1cccc(-c2nn(C)c3sc(C(=O)Nc4ccc5c(c4)OCCO5)cc23)c1	-2	7.7	2840	-61	11	.	.
Cc1ccc(-c2nc3[nH]c(=O)cc(NC(=O)c4cccs4)n3n2)cc1	26	6.0	3349	-11	0	-3	12
Cc1noc(C)c1CN1C(=O)NC(Cc2ccccc2)(Cc2ccccc2)C1=O	8	5.1	5105	5	-7	.	.
CCc1ccc(OCC(=O)NNCC(=O)Nc2ccc(OC)cc2)cc1	.	2.1	?	-20	2	57*	35*
COc1cc2c(cc1NC(=O)CSc1nnc(Cc3cccs3)n1C)oc1ccccc12	10	30	.	-9	-25	4	12
CCOc1ccc(C(=O)NC(=S)Nc2cc(C)ccn2)cc1[N+](=O)[O-]	3	3.0	4710	-39	1	20	1
COc1ccc(NS(=O)(=O)c2cc(NC(=O)CCSc3ccccc3)ccc2OC)cc1	-2	-2.3	2095	-9	19	7	-2

Compound activity as filed in PubChem.
